Rce1 inh: blocks yeast Ras-converting enzyme; yeast membranes, quenched prenylated peptide cleavage fluorescence; calls only; actives 0.27% (n = 290,000); AID 2563;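 active = fall in fluorescence gain of 50% or more versus controls, with final raw signal at or below 3038400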;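 also: plate controls were neutral control wells for no effect and wells lacking membranes for full effect; tested at 10 µM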
PABP polyA inh: blocks human PABP binding to poly(A) RNA | P11940 | fluorescence polarization | inhibition, % at 35 µM | actives 1% (n = 290,000) | AID 2014;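 active = 50% or more with normal probe brightness, or confirmed in later tests; about a fifth of its hits are not listed in these tables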;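 also: calls also rest on retests at 20 µM and on dose response follow-up; controls were probe without protein and protein plus probe with vehicle; some compounds called inactive have numbers as strong as hits; many hits fall short of the cut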
Target sequence (P11940 whole entry, looked up): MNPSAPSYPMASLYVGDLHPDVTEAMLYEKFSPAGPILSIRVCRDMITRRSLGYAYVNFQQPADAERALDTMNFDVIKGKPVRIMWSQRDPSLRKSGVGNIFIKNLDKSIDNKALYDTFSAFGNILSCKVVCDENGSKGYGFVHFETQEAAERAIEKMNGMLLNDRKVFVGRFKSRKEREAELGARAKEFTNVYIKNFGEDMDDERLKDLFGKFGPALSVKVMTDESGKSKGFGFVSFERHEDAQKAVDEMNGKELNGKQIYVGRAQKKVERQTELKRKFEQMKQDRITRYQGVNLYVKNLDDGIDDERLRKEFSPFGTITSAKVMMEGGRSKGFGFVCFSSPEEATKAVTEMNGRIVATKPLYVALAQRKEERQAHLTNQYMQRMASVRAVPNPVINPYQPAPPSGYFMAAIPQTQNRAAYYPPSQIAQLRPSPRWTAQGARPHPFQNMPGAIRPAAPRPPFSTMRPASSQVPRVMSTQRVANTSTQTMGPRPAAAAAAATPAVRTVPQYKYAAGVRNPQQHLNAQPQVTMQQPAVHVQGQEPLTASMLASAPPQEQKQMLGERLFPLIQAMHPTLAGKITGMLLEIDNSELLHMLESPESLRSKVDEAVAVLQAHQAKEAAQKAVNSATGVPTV
eIF4H inh: inhibitors of RNA binding by human eIF4H; Q15056; eIF4H fluorescence polarization binding assay; inhibition, % at 35 µM; actives 0.94% (n = 290,000);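 active = 50% or more with normal probe brightness, or confirmed in later tests; about a fifth of its hits are not listed in these tables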;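 also: calls also rest on retests at 20 µM and on dose response follow-up; 0% = protein and probe with vehicle and 100% = probe without protein; strong numbers were not always called active; many hits fall short of the cut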
CSC inhib: cancer stem cell inhibition; actives 1.1% (n = 300,000); cancer stem cell-like cells viability, luminescence; inhibition, % at 7.5 µM;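 active = mean at 75% or more and at least half the replicates too; tested in HMLE shEcad cells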;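 also: 0% = median of negative and 100% = median of positive control wells; the first replicate is given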
HIV Env fusion: inhibitors of HIV Env-mediated cell fusion; HeLa-JRFL Env/CEM21 cell fusion, luciferase; inhibition, % at 12.3 µM; actives 1.1% (n = 360,000); AID 651610;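 active = mean replicate inhibition score of at least 50 and every replicate individually at or above 50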;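 also: 0% = plate neutral controls and 100% = maraviroc near 300 nM; one replicate is shown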
UUG fidelity: alters start codon recognition fidelity in yeast; S. cerevisiae UUG-firefly luciferase reporter, luminescence/redox ratio; activity score, % at 18.7 µM; actives 0.13% (n = 350,000);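 active = replicate mean at a twofold rise or more, about +100% in these data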;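 also: firefly luciferase made from a UUG start codon reports start codon fidelity; reporter light over untreated wells divided by growth signal over untreated wells; some hits fall short of that in this replicate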
MT1-MMP act inh: inhibitors of human MT1-MMP activation; P50281; HT1080 RFP-PRO-GFP cells, GFP/RFP ratio fluorescence, overnight; percent of plate control window, DMSO zero; GFP/RFP ratio change, % at 20 µM; actives 0.061% (n = 360,000);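 active = GFP/RFP ratio change of at least 30% with cell ATP level not reduced by more than half and red fluorescence within 50% of control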; also: strong numbers were not always called active
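system = RFP-PRO-GFP reporter HT1080 cells | dosing = 20 µM single dose, 1% DMSO | timing = overnight cell settling, then overnight compound exposure, 37 °C, 5% CO2 | read-out basis = GFP/RFP fluorescence ratio | controls = DMSO and RFP-L50D-GFP cell wells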
eIF4H inh retest: further read-out of eIF4H inh, marked with its call; inhibition, %; compound at 20 µM; confirmation average;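 mean of two retest wells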
PABP polyA inh retest: also measured in PABP polyA inh; calls as there; inhibition, %; compound at 20 µM; confirmation repeats;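 mean of two retest wells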
MT1-MMP act inh RFP: second read-out of MT1-MMP act inh, no call of its own (marks repeat the call); RFP signal change, %; measured here: RFP expression control read;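 0 = vehicle wells; hits needed this value within 50% of zero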
Starred values were filed as active, the others as inactive; i = inactive; x = no result given; & = joins results of further samples; [ ] = remark or other dose.

SMILES | Rce1 inh | PABP polyA inh | eIF4H inh | CSC inhib | HIV Env fusion | UUG fidelity | MT1-MMP act inh | MT1-MMP act inh RFP | others
Cc1ccc2c(c1)C1CN(C)CCC1N2S(=O)(=O)c1ccc(Oc2ccc([N+](=O)[O-])cc2)cc1 (centres undefined) | i | -13 | -5 | 12 | x | -18 | -10 | -10
CN1OC[C@@H]2CN[C@H](c3ccc(-c4ccccc4)cc3)C[C@@H]21 | x | x | x | x | -84 | -11 | 3 | 7
COc1ccc(/C=N/NC(=O)Cc2ccc(Cl)cc2)cc1OC | i | 4 | -5 | -4 | 0 | x | -2 | 0
COc1ccc(N2C(=O)N3[C@H](c4ccc(Cl)cc4)[C@@H]4C(=O)N(C5CCCCC5)C(=O)[C@@H]4[C@]3(C)C2=O)cc1 | i | 16 | 6 | 1 | 85* | -11 | 3 | -9
NC(=O)C(c1ccccc1)C1CCCC1 (centres undefined) | i | -8 | 0 | -9 | x | -17 | 0 | 2
O=c1c2ccccc2nc(SCc2nc3ccccc3s2)n1Cc1ccco1 | i | -8 | -11 | 8 | 37 | -15 | -9 | -11
COc1ccc(OC)c(CNC(=O)C2CCCN(S(=O)(=O)N3CC(C)CC(C)C3)C2)c1 (centres undefined) | i | x | x | -9 | 8 | -8 | -5 | -2
CN1CCN(C(=S)c2ccc(OCC(=O)Nc3cccc(C(F)(F)F)c3)cc2)CC1 | i | -12 | -5 | 4 | x | -6 | 12 | -4
CCCc1cc(=O)n2nc(N3CCC(C(=O)Nc4cccc(C(C)=O)c4)CC3)sc2n1 | i | 7 | 0 | 14 | -8 | -5 | 4 | 8
O=C(Cc1ccccc1[N+](=O)[O-])Nc1ccc2c(c1)OCCO2 | i | 9 | -2 | -13 | -1 | x | 2 | 8
C[C@H](CO)N1C[C@H](C)[C@@H](CN(C)C(=O)Nc2cccc(Oc3ccccn3)c2)OCc2cnnn2CCCC1=O | x | x | x | x | -1[16.7 µM] | -6&-6 | 0 | 1
Cc1ccc(Cn2c(SCC(N)=O)nc3c2c(=O)n(C)c(=O)n3C)cc1 | i | -2 | -15 | 22 | x | -8 | -7 | -3
CC(=O)Nc1cccc(Oc2ccc(-c3noc(C)n3)cc2)c1 | i | -13 | -4 | -3 | -37 | -15 | -18 | -9
Cc1cc(C)n(-c2ccc(C(=O)NCc3ccc4c(c3)OCO4)cc2)n1 | i | 3 | -11 | -12 | -136 | 7 | -1 | 1
COc1ccc(OCC(O)CNC(=O)Nc2ccc(F)cc2)cc1 (centres undefined) | i | -7 | 1 | -13 | 0 | x | 0 | 0

11 neighbouring compounds out of the list so far, for reference:
SMILES | Rce1 inh | PABP polyA inh | eIF4H inh | CSC inhib | HIV Env fusion | UUG fidelity | MT1-MMP act inh | MT1-MMP act inh RFP | others
NC(=O)C(c1ccccc1)C1CCCC1 (centres undefined) | i | -8 | 0 | -9 | x | -17 | 0 | 2
O=c1c2ccccc2nc(SCc2nc3ccccc3s2)n1Cc1ccco1 | i | -8 | -11 | 8 | 37 | -15 | -9 | -11
COc1ccc(OC)c(CNC(=O)C2CCCN(S(=O)(=O)N3CC(C)CC(C)C3)C2)c1 (centres undefined) | i | x | x | -9 | 8 | -8 | -5 | -2
CN1CCN(C(=S)c2ccc(OCC(=O)Nc3cccc(C(F)(F)F)c3)cc2)CC1 | i | -12 | -5 | 4 | x | -6 | 12 | -4
CCCc1cc(=O)n2nc(N3CCC(C(=O)Nc4cccc(C(C)=O)c4)CC3)sc2n1 | i | 7 | 0 | 14 | -8 | -5 | 4 | 8
O=C(Cc1ccccc1[N+](=O)[O-])Nc1ccc2c(c1)OCCO2 | i | 9 | -2 | -13 | -1 | x | 2 | 8
C[C@H](CO)N1C[C@H](C)[C@@H](CN(C)C(=O)Nc2cccc(Oc3ccccn3)c2)OCc2cnnn2CCCC1=O | x | x | x | x | -1[16.7 µM] | -6&-6 | 0 | 1
Cc1ccc(Cn2c(SCC(N)=O)nc3c2c(=O)n(C)c(=O)n3C)cc1 | i | -2 | -15 | 22 | x | -8 | -7 | -3
CC(=O)Nc1cccc(Oc2ccc(-c3noc(C)n3)cc2)c1 | i | -13 | -4 | -3 | -37 | -15 | -18 | -9
Cc1cc(C)n(-c2ccc(C(=O)NCc3ccc4c(c3)OCO4)cc2)n1 | i | 3 | -11 | -12 | -136 | 7 | -1 | 1
COc1ccc(OCC(O)CNC(=O)Nc2ccc(F)cc2)cc1 (centres undefined) | i | -7 | 1 | -13 | 0 | x | 0 | 0

The list continues.
SMILES | Rce1 inh | PABP polyA inh | eIF4H inh | CSC inhib | HIV Env fusion | UUG fidelity | MT1-MMP act inh | MT1-MMP act inh RFP | others
CC(C)NC(=O)NC(=O)CSc1nncs1 | i | -2 | 4 | 1 | -10 | x | 0 | 1
COc1ccc2[nH]c(=O)c(CN(CC3CCCO3)C(=S)Nc3cccc(C)c3)cc2c1 (centres undefined) | i | 8 | -6 | -10 | 8 | x | -10 | -9
COc1ccc(-c2cc3ncc(-c4ccccc4)c(N)n3n2)cc1 | i | 70 | -3 | x | -130 | x | 3 | -2 | eIF4H inh retest=3;PABP polyA inh retest=6
CCN(CC)C(=O)C1=C(C)N(Cc2ccc(OC)cc2)C(=O)C(CC(=O)NC2CCCC2)C1 (centres undefined) | x | x | x | x | 22 | 23 | 0 | 3
CCOC(=O)N1CCN(S(=O)(=O)N2CCCC(C(=O)NCCCN3CCC(C)CC3)C2)CC1 (centres undefined) | i | x | x | -18 | -1 | -8 | -2 | 1
OC(COc1ccc(CNCCc2ccc(C(F)(F)F)cc2)cc1)CN1CCCCC1 (centres undefined) | i | -4 | 0 | 16 | -6 | x | 5 | -1
CC(=O)c1cc(-c2ccc(F)cc2)n(CCC(=O)Nc2cccc(C)n2)c1C | i | 2 | 0 | -7 | 33 | x | -46 | -33
CCOC(=O)[C@@H]1[C@H]2COc3cc(OC)ccc3[C@H]2N2C(=O)N(c3cccc(C)c3)C(=O)[C@]12C | x | x | x | -4 | -115 | -2 | -2 | 0
COc1ccc(/C=N/NC(=O)CCC(=O)Nc2ccccc2)cc1OC | i | -7 | 0 | -8 | -6 | x | 3 | 2
O=C(C1CCN(c2nc3nonc3nc2N2CCCCC2)CC1)N1CCOCC1 | i | -1 | 3 | -20 | -11 | -1 | -1 | 1
O=C(COc1ccc2ccc(=O)oc2c1)NCCCn1ccnc1 | i | 4 | -17 | -3 | 2 | -13 | -2 | 1
COc1ccc(CNC(=O)COC(=O)c2cc3ccccc3o2)cc1 | x | x | x | x | 3 | -13 | -2 | 3
C(=C\CSc1nnnn1-c1ccccc1)/CSc1nnnn1-c1ccccc1 | i | 2 | 6 | -16 | 32 | -13 | 1 | -2
O=C(CSc1nc(C(F)(F)F)cc(=O)[nH]1)NCC1CCCO1 (centres undefined) | i | x | x | x | 10 | -18 | 6 | 3
CN(C)S(=O)(=O)N(CC(=O)N(Cc1ccccc1)Cc1ccccc1)c1ccccc1 | i | 6 | 26 | 4 | 38 | 7 | -6 | -8
CC(C)c1ccc(NC(=O)C2Cc3c(-c4ccc5c(c4)OCO5)ccnc3O2)cc1 (centres undefined) | x | x | x | x | -18 | -41 | -5 | -9
CC(C)(C)OC(=O)NC(CNCc1ccccc1)Cc1ccccc1 (centres undefined) | i | x | x | -1 | -34 | -4 | -1 | 2
COc1cc(OC)cc(C(=O)NCC(=O)Nc2ccc(-c3ccccc3)cc2)c1 | i | 5 | -11 | 57 | 12 | 2 | -5 | -11
COc1ccc(C)cc1N(C(=O)c1ccco1)C(C(=O)NC1CCCC1)c1ccc(N2CCOCC2)cc1 (centres undefined) | i | -9 | 6 | 10 | 9 | 6 | 0 | 1
CCOc1ccc(NC(=O)C(C)Sc2nnc(C)n2C)cc1 (centres undefined) | i | -6 | -10 | -5 | -1 | -12 | 3 | 1
O=C(NCc1ccco1)c1cc(S(=O)(=O)N2CCCc3ccccc32)ccc1Cl | i | 0 | 2 | 8 | 16 | -7 | -1 | -2
CN(CC(=O)Nc1ccc(Cl)cc1)C(=O)CCNC(=O)c1ccc(Cl)cc1 | x | x | x | x | 8 | -17 | -3 | -5
CCSCCNC(=O)c1cc(-n2cnnc2)ccc1Cl | i | 60 | -7 | 7 | 8 | -8 | -9 | -1 | eIF4H inh retest=15;PABP polyA inh retest=41
CCOCCCN1C(=O)CN(C2CCCCC2)C(=O)C1c1ccc(OC)c(OC)c1 (centres undefined) | i | -4 | -10 | -5 | x | 4 | -1 | 2
Cc1cccnc1C1=NOC(Cc2ccccc2)C(=O)N1Cc1ccc(F)cc1 (centres undefined) | x | x | x | x | 10 | -4 | 1 | -2
Cc1cc(=O)[nH]c(SCC(=O)Nc2nonc2C)n1 | i | -14 | -8 | -16 | -8 | -13 | -1 | 1
CC(=O)Nc1ccc(S(=O)(=O)Nc2nnc(C3CCCCC3)s2)cc1 | i | 4 | 2 | 0 | x | 1 | 6 | 1
CC(C)CC(=O)Nc1ccccc1N1CCCC1 | i | 0 | 5 | -11 | -2 | x | 2 | 6
Cc1nc(-c2ccc(Cl)cc2)sc1C1(C)CC(c2ccc(OC(F)(F)F)cc2)=NO1 (centres undefined) | i | 1 | -6 | 5 | -62 | -5 | 2 | 1
Nc1cc(=O)[nH]c(SCC(=O)N2N=C(c3ccc4ccccc4c3)CC2c2ccccc2)n1 (centres undefined) | i | 3 | 1 | 29 | -10 | -12 | -9 | -17

Among those listed so far, two have a nitro group on carbon:
SMILES | Rce1 inh | PABP polyA inh | eIF4H inh | CSC inhib | HIV Env fusion | UUG fidelity | MT1-MMP act inh | MT1-MMP act inh RFP | others
Cc1ccc2c(c1)C1CN(C)CCC1N2S(=O)(=O)c1ccc(Oc2ccc([N+](=O)[O-])cc2)cc1 (centres undefined) | i | -13 | -5 | 12 | x | -18 | -10 | -10
O=C(Cc1ccccc1[N+](=O)[O-])Nc1ccc2c(c1)OCCO2 | i | 9 | -2 | -13 | -1 | x | 2 | 8

Next section
SMILES | Rce1 inh | PABP polyA inh | eIF4H inh | CSC inhib | HIV Env fusion | UUG fidelity | MT1-MMP act inh | MT1-MMP act inh RFP | others
CC1(C)NC(=O)N(CC(=O)OCC(=O)Nc2cc(S(=O)(=O)N3CCCCC3)ccc2Cl)C1=O | i | -8 | -2 | -9 | -3 | x | 1 | 3
COc1ccc(C(=O)n2ncc(C#N)c2N)cc1 | i | 6 | -8 | x | -7 | -14 | 1 | 3
COc1ccc(-c2csc(NC3=NCCCCC3)n2)cc1 | i | 26 | -5 | 21 | -46 | x | 3 | 8
Cc1ccc(C(=O)OCc2cn3ccccc3n2)cc1 | i | 4 | -9 | 7 | x | -12 | 0 | -3
O=C(Nc1ccccc1)c1ccc(NC(=O)c2cccs2)cc1 | i | -5 | -5 | -9 | -9 | -15 | 5 | -2
CCOC(=O)C1CCCN(c2c(NCCN3CCCCC3CC)c(=O)c2=O)C1 (centres undefined) | i | 4 | 1 | 9 | -5 | -3 | -2 | 4
O=C(NCC1CCOCC1)C1CCC(=O)N(Cc2cccc(C(F)(F)F)c2)C1 (centres undefined) | i | 0 | -3 | -8 | 6 | -2 | 2 | 4
CCN(CC)CCCC(C)NC1=NCCCCC1 (centres undefined) | i | 6 | -2 | x | -30 | -6 | 0 | 4
COc1ccc(CN(C)C(=O)c2ccc(NS(=O)(=O)c3ccc4[nH]c(=O)[nH]c4c3)cc2)c(OC)c1 | i | -7 | -2 | -7 | -5 | 7 | 0 | 5
Cc1cc(NC(=O)c2ccc3c(c2)OCCO3)ccc1NC(=O)c1ccco1 | x | 9 | -3 | 15 | -126 | x | 2 | -2
COc1ccc(/C=C/C(=O)Oc2ccc(/C=N/NC(=O)c3ccccc3)cc2)cc1OC | i | -6 | -3 | -24 | x | -13 | 1 | 1
Cn1c(N)c(C(=O)COC(=O)CCCN2C(=O)c3ccccc3C2=O)c(=O)n(C)c1=O | i | 2 | -9 | -8 | 9 | -14 | 2 | -4

Screening results as filed in PubChem BioAssay.

Some of the compounds tested. The share of hits here may be higher or lower than overall.
